Source: PubChem
Six1-Eya2 inh: Six1/Eya2 interaction inhibition; Q15475+O00167; AlphaScreen GST-Six1/His-Eya2 binding, biochemical; stronger effect = lower value; control for the full effect not named in the record; activity change, % (no concentration beside the values); actives 0.56% (n = 360,000); in the data active = activity change below about -65%; inconclusive = about -30% to -65%; inactive = above about -30%; note: % is set by controls: 0 for no effect and ±100 for the full control effect; compound concentration not given in the record
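Six1/Eya2 binding was read as AlphaScreen signal after compounds were pinned into GST-Six1 plus His-tagged Eya2 (5X stock 250/500 nM) in pH 8.0 Tris/NaCl/TCEP buffer, beads added, then incubated 1 h, 37 C, dark.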
TRPML1 blocker: blocks the human TRPML1 channel. actives 0.02% (n = 390,000). activity change, negative = inhibition, % (no concentration beside the values). TRPML1-inducible cells, Ca2+ dye fluorescence, FDSS; stronger effect = lower value; inhibition of EC80 agonist-evoked calcium signal. AID 624415; in the data active means activity change below about -50%; inconclusive means about -30% to -50%; inactive means above about -30%;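 note: stimulus is agonist 54-4 at its EC80 concentration; % is set by controls: 0 for no effect and ±100 for the full control effect; compound concentration not given in the record; the text of the record puts the active cut at -80%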
Target sequence (Q9GZU1 whole entry, looked up): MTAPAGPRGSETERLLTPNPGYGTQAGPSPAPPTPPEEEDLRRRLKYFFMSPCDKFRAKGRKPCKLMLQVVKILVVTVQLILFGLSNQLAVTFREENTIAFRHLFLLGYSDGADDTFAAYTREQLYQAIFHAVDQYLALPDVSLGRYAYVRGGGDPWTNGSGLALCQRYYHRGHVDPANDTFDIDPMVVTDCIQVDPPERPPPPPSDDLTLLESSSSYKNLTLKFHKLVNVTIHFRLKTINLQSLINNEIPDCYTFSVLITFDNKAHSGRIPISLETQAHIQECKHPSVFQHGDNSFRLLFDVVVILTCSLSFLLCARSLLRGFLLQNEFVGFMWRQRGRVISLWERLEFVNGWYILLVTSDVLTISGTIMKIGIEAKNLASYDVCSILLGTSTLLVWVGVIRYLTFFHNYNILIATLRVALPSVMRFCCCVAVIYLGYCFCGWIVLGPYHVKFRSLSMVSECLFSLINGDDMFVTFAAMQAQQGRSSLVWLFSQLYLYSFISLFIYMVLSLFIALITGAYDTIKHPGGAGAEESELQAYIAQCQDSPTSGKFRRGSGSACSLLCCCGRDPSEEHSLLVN
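Tet-induced TRPML1-DL cells loaded with Ca8 no-wash calcium dye were read kinetically on FDSS. Compound addition was followed by EC80 agonist 54-4 (4 uM final); inhibition was read over 110 s.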
PINK1 expr mod: PINK1 expression modulation; actives 0.2% (n = 410,000); Potency, µM (top dose mostly 76.6 µM), for the others: top-dose activation (PINK1 increase), actives largely listed as activators; AID 624263; PINK1 immunofluorescence, high-content cytometry, 24 h; active = well fitted activation curve with a large enough effect; inconclusive = small, poorly fitted or top-dose-only effect; inactive = flat fitted curve, though single readings scatter; cell line not stated here;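 note: potency is the fitted concentration of half-maximal effect; % of control where 0% means no effect; nearly all actives have a fitted effect of over 65% in size; a mitochondrial uncoupler was the plate control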
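PINK1 protein level read as immunofluorescence by microplate cytometer in a fixed, stained stable cell line after 24 h exposure to five compound concentrations, with CCCP as control.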
TRPML1 agonist: activates the human TRPML1 channel. Q9GZU1. TRPML1-expressing cells, Ca2+ dye fluorescence, FDSS; host cell line not named in the record; reference of the full effect not given here. activation, % (no concentration beside the values). actives 0.12% (n = 410,000). AID 624414; in the data active = activation above about 50%; inconclusive = about 30% to 50%; inactive = below about 30%; note: 0% is about no effect; the text of the record puts the active cut at 80%
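Agonist activity was taken from a 110 s kinetic Ca2+ dye read on the FDSS after pinning compounds onto TRPML1-DL cells. The cells were seeded at 1,500/well with Tet inducer, incubated about 16 h, then dye-loaded at room temperature.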
D2 ag: activates the human D2 dopamine receptor. actives 0.084% (n = 360,000). P14416. AID 624465. DiscoveRx PathHunter D2 beta-arrestin, luminescence, 90 min; 100% = 57 uM dopamine signal. activation, % (test concentration not listed); in the data active = activation above about 40%; inconclusive = about 15% to 40%; inactive = below about 15%; note: compound concentration not given in the record; the text of the record calls up to 30% inactive
Target sequence (P14416 whole entry, looked up): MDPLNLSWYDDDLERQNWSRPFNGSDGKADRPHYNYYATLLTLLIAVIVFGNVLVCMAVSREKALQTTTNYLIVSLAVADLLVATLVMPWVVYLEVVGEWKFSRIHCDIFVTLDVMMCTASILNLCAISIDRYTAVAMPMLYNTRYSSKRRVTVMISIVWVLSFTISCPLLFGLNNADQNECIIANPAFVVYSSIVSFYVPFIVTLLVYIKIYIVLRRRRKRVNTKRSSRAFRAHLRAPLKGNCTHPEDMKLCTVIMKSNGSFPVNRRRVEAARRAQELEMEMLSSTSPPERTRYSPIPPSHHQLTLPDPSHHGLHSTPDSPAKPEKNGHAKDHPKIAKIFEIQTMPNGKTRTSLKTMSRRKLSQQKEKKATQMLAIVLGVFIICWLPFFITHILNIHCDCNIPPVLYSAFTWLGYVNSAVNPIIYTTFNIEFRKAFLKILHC
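Agonist mode: compounds alone added to overnight-plated D2 PathHunter cells for 90 min at 37 C, with 57 uM final dopamine (EC100) defining full response. Beta-arrestin recruitment detected by chemiluminescent reagent, read after 1 h at ambient temperature.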
CtBP-E1A blk: CtBP/E1A binding inhibition; AID 651724; AlphaScreen GST-E1A/His-CtBP binding, 1536-well; stronger effect = lower value; control for the full effect not named in the record; activity change, % (test concentration not listed); actives 0.49% (n = 340,000); in the data active means activity change below about -65%; inconclusive means about -30% to -65%; inactive means above about -30%; note: % is set by controls: 0 for no effect and ±100 for the full control effect; compound concentration not given in the record
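In 5 uL wells, 23 nL compound meets equimolar GST-E1A and His-CtBP (5X stock 125 nM each) for 2 h, 37 °C. Beads (5X, 50 ug/mL) then 1 h, 37 °C, dark.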
Numbers without * were called inactive; [ ] = dose if it differs, or a comment. This is a random part of the collection. About 1% of those tested had a hit in this group.

Start of the data: the first 2 compounds (preview)
Results for CCc1nnc(NC(=O)Cc2ccc(OC)cc2)s1 ?
Six1-Eya2 inh: 7; TRPML1 blocker: 14; PINK1 expr mod: -1.8%; TRPML1 agonist: 2.2; D2 ag: 0.5; CtBP-E1A blk: 7

How did NC(=O)c1cc2cc(Cl)ccc2oc1=Nc1cccc(C(F)(F)F)c1 do in these assays?
Six1-Eya2 inh: 2; TRPML1 blocker: -7; PINK1 expr mod: 6.1%; TRPML1 agonist: -0.3; D2 ag: -3.1; CtBP-E1A blk: -2

This part in full (from the top)
Results for CCc1nnc(NC(=O)Cc2ccc(OC)cc2)s1 ?
Six1-Eya2 inh: 7; TRPML1 blocker: 14; PINK1 expr mod: -1.8%; TRPML1 agonist: 2.2; D2 ag: 0.5; CtBP-E1A blk: 7

How did NC(=O)c1cc2cc(Cl)ccc2oc1=Nc1cccc(C(F)(F)F)c1 do in these assays?
Six1-Eya2 inh: 2; TRPML1 blocker: -7; PINK1 expr mod: 6.1%; TRPML1 agonist: -0.3; D2 ag: -3.1; CtBP-E1A blk: -2

What do the screens show for `CCC(C)(C)N1CC(=O)N(Cc2ccccc2)C(c2ccc(OC)cc2)C1=O` (centres undefined)?
Six1-Eya2 inh: -5; TRPML1 blocker: 14; PINK1 expr mod: -0.5%; TRPML1 agonist: 0.8; D2 ag: -1.1; CtBP-E1A blk: 3

Results for COC(=O)[C@@]1(Cc2ccc(F)cc2)[C@H]2c3cc(C(=O)N(C)C)n(C)c3C[C@H]2CN1C(=O)c1ccccc1 ?
Six1-Eya2 inh: -4; PINK1 expr mod: 3.8%; TRPML1 agonist: 1.0; CtBP-E1A blk: -2

Results for CCOc1cc(CO)c(Br)cc1OCC(=O)O ?
Six1-Eya2 inh: 3; TRPML1 blocker: 6; PINK1 expr mod: 1.6%[38.3 µM]; TRPML1 agonist: -0.2; D2 ag: -2.4; CtBP-E1A blk: 4

How did Cc1ccccc1NC(=O)CC1S/C(=N/c2nccs2)N(C)C1=O (centres undefined) do in these assays?
Six1-Eya2 inh: 0; TRPML1 blocker: 20; PINK1 expr mod: -1.1%; TRPML1 agonist: -0.9; D2 ag: -2.8; CtBP-E1A blk: 0

Results for COC(=O)c1ccc(NC(=O)c2cccc(NC(=O)c3ccccc3)c2)cc1 ?
Six1-Eya2 inh: -9; TRPML1 blocker: 13; PINK1 expr mod: 1.6%; TRPML1 agonist: -0.5; D2 ag: -3.4

What do the screens show for `CC1(C(=O)NCc2ccc3c(c2)OCO3)CCN1C(=O)Cc1cccc2ccccc12` (centres undefined)?
Six1-Eya2 inh: -1; TRPML1 blocker: 6; PINK1 expr mod: 0.3%; TRPML1 agonist: -0.3; D2 ag: 1.4; CtBP-E1A blk: -3

How did O=C(COC(=O)C1=COCCO1)NC1CCCCC1 do in these assays?
Six1-Eya2 inh: 9; TRPML1 blocker: -9; PINK1 expr mod: 2.6%; TRPML1 agonist: 0.3; D2 ag: -3.7; CtBP-E1A blk: 0

Results for COc1ccc2oc(C(=O)OCC(=O)Nc3cccc(S(=O)(=O)N4CCOCC4)c3)c(C)c2c1 ?
Six1-Eya2 inh: -9; TRPML1 blocker: -4; PINK1 expr mod: 2.2%; TRPML1 agonist: 2.1; D2 ag: 2.6; CtBP-E1A blk: -7

What do the screens show for `Fc1ccc(-c2cc(-c3ccccc3)nc(-n3cccn3)n2)cc1`?
Six1-Eya2 inh: 3; TRPML1 blocker: 18; PINK1 expr mod: 5.6%; TRPML1 agonist: 0.0; D2 ag: 0.9; CtBP-E1A blk: 10

Results for COc1cccc(NC(=O)C(NC2CCCC2)c2ccccc2)c1 (centres undefined) ?
Six1-Eya2 inh: 3; TRPML1 blocker: 10; PINK1 expr mod: 1.3%; TRPML1 agonist: 0.8; D2 ag: -6.0; CtBP-E1A blk: 6

Results for NC(=S)NN=C1c2ccccc2-c2c(F)c(F)c(F)c(F)c21 ?
Six1-Eya2 inh: -24; TRPML1 blocker: -10; PINK1 expr mod: 0.8%; TRPML1 agonist: 0.5; D2 ag: -4.7; CtBP-E1A blk: 3

Results for CSc1ccccc1NC(=O)N1CCCC(C(=O)c2ccc3c(c2)OCO3)C1 (centres undefined) ?
Six1-Eya2 inh: 0; TRPML1 blocker: -7; PINK1 expr mod: 1.0%; TRPML1 agonist: 0.4; D2 ag: -0.2; CtBP-E1A blk: 2

How did CCN1CCN(C(=O)Nc2ccc(OC)cc2OC)CC1 do in these assays?
Six1-Eya2 inh: 0; TRPML1 blocker: 4; PINK1 expr mod: 0.2%; TRPML1 agonist: -0.5; D2 ag: 3.4; CtBP-E1A blk: 0

How did C/C(=N/NC(=O)c1ccc(C)s1)c1ccncc1 do in these assays?
Six1-Eya2 inh: 1; TRPML1 blocker: 3; PINK1 expr mod: 0.7%; TRPML1 agonist: -0.2; D2 ag: -3.1; CtBP-E1A blk: 2

Results for O=C(O)Cc1coc(-c2ccc(F)cc2)n1 ?
Six1-Eya2 inh: 6; TRPML1 blocker: 4; PINK1 expr mod: 1.8%; TRPML1 agonist: 0.0; D2 ag: -3.5; CtBP-E1A blk: 11

How did COC(=O)[C@@H](Cc1c[nH]c2ccccc12)NC(=O)CNC(=O)c1ccccc1OC do in these assays?
Six1-Eya2 inh: -12; TRPML1 blocker: -2; PINK1 expr mod: -0.8%; TRPML1 agonist: -0.4; D2 ag: -5.5; CtBP-E1A blk: -10

Results for O=C(CSc1cccc[n+]1[O-])NCCCc1ccccc1 ?
Six1-Eya2 inh: 7; TRPML1 blocker: inconclusive; PINK1 expr mod: -0.4%; TRPML1 agonist: -0.1; D2 ag: -6.5; CtBP-E1A blk: 6

What do the screens show for `CC(C)(C)c1ccc(/C=C/C(=O)NC2=NCCS2)cc1`?
Six1-Eya2 inh: -6; TRPML1 blocker: -2; PINK1 expr mod: inconclusive; TRPML1 agonist: 0.9; D2 ag: -2.9; CtBP-E1A blk: 1

Results for Cc1ccc(NC(=S)N2CCC(O)CC2)c(C)c1 ?
Six1-Eya2 inh: 4; TRPML1 blocker: -1; PINK1 expr mod: 0.3%; TRPML1 agonist: 0.2; D2 ag: 4.3

Results for Cc1ccc(C)c(OCc2nnc(SCC(=O)NCc3ccc4c(c3)OCO4)o2)c1 ?
Six1-Eya2 inh: -8; TRPML1 blocker: -3; PINK1 expr mod: -2.1%; TRPML1 agonist: 2.4; D2 ag: -0.2; CtBP-E1A blk: 8

How did CC(C)NC(NC(=O)Cc1ccccc1)C(Cl)(Cl)Cl (centres undefined) do in these assays?
Six1-Eya2 inh: -1; TRPML1 blocker: 11; PINK1 expr mod: 1.0%; TRPML1 agonist: 0.1; D2 ag: 0.8; CtBP-E1A blk: -2

Results for COc1ccc(-n2c(=O)[nH]cc(C(=O)Nc3ccc4c(c3)OCCO4)c2=O)cc1 ?
Six1-Eya2 inh: -2; TRPML1 blocker: -5; PINK1 expr mod: 0.7%; TRPML1 agonist: 5.3; D2 ag: -0.5; CtBP-E1A blk: -1

Results for CCOc1ccc(-c2nc(S(=O)(=O)c3ccccc3)c(NCc3cccnc3)o2)cc1 ?
Six1-Eya2 inh: -16; TRPML1 blocker: 4; PINK1 expr mod: 2.4%; TRPML1 agonist: 1.4; D2 ag: 0.1; CtBP-E1A blk: -1

How did O=C(N/N=C/C=C\c1ccco1)c1cccnc1 do in these assays?
Six1-Eya2 inh: -7; TRPML1 blocker: -14; PINK1 expr mod: -1.3%; TRPML1 agonist: 0.9; D2 ag: -0.8; CtBP-E1A blk: -7

What do the screens show for `COc1ccc(S(=O)(=O)N2CCC(C(=O)N[C@H](C(=O)N3CCCCCC3)C(C)C)CC2)cc1`?
Six1-Eya2 inh: 2; TRPML1 blocker: 17; PINK1 expr mod: -0.9%; TRPML1 agonist: -0.6; D2 ag: 0.7; CtBP-E1A blk: 8

What do the screens show for `CCc1nnc(NS(=O)(=O)c2ccc(Nc3ccc([N+](=O)[O-])c4nonc34)cc2)s1`?
Six1-Eya2 inh: -12; TRPML1 blocker: -12; PINK1 expr mod: 1.9%; TRPML1 agonist: 0.3; D2 ag: -16; CtBP-E1A blk: 26

What do the screens show for `C=CCOc1ccc(C2/C(=C(\O)c3ccc4c(c3)CC(C)O4)C(=O)C(=O)N2CCN2CCOCC2)cc1OCC` (centres undefined)?
Six1-Eya2 inh: -1; TRPML1 blocker: 39; PINK1 expr mod: 0.1%; TRPML1 agonist: 0.3; D2 ag: -3.8; CtBP-E1A blk: -4

Results for C/C(=N\NC(=O)c1ccn(C)n1)c1cccc(NC(=O)c2ccc(C)s2)c1 ?
Six1-Eya2 inh: -22; TRPML1 blocker: -11; PINK1 expr mod: 4.5%; TRPML1 agonist: -0.1; D2 ag: -1.5; CtBP-E1A blk: 3

How did CCOc1cccc(OCCOc2ccc(C(=O)c3ccccc3)cc2)c1 do in these assays?
Six1-Eya2 inh: 44; TRPML1 blocker: -3; PINK1 expr mod: 4.2%; TRPML1 agonist: 1.4; D2 ag: 1.6; CtBP-E1A blk: 28

What do the screens show for `Cc1nnc(NC(=O)C2CCN(c3cnccn3)CC2)s1`?
Six1-Eya2 inh: -10; TRPML1 blocker: 23; PINK1 expr mod: 3.6%[38.3 µM]; TRPML1 agonist: 0.5; D2 ag: -2.6; CtBP-E1A blk: -5

What do the screens show for `NS(=O)(=O)c1ccc(N=Nc2c[nH]c(=O)c(O)c2)cc1`?
Six1-Eya2 inh: inconclusive; TRPML1 blocker: 0; PINK1 expr mod: 2.0%; TRPML1 agonist: 1.3; D2 ag: -3.0; CtBP-E1A blk: inconclusive

Results for CCCNC(=O)c1cc(C2CCCCN2C(=O)CCCc2ccccc2)on1 (centres undefined) ?
Six1-Eya2 inh: 0; PINK1 expr mod: 0.8%; TRPML1 agonist: -0.9; D2 ag: -1.1; CtBP-E1A blk: -5

What do the screens show for `CC(=O)NC(c1cccc([N+](=O)[O-])c1)c1ccc2cccnc2c1O` (centres undefined)?
Six1-Eya2 inh: -69*; TRPML1 blocker: 10; PINK1 expr mod: 3.1%; TRPML1 agonist: 0.1; D2 ag: 1.6; CtBP-E1A blk: -92*

How did O=P(OC1CCCCC1)(OC1CCCCC1)C(O)c1c(Cl)cccc1Cl (centres undefined) do in these assays?
Six1-Eya2 inh: -1; TRPML1 blocker: 7; PINK1 expr mod: 1.5%; TRPML1 agonist: 17; D2 ag: -0.1; CtBP-E1A blk: -4

What do the screens show for `CC(NC(=O)c1cc(COc2ccc(-n3cncn3)cc2)on1)c1ccc(F)cc1` (centres undefined)?
Six1-Eya2 inh: -2; TRPML1 blocker: 23; PINK1 expr mod: 1.8%; TRPML1 agonist: -0.3; D2 ag: -0.4; CtBP-E1A blk: 2

What do the screens show for `CC(=O)c1ccc(NC(=O)c2nc(-c3ccccc3)n(-c3ccc(Cl)cc3)n2)cc1`?
TRPML1 blocker: 6; PINK1 expr mod: 2.9%; TRPML1 agonist: 0.2

Results for Cc1ccccc1COC[C@H](CC(C)C)N1CCN(C(=O)c2cccc(C(F)(F)F)c2)CCC1=O ?
Six1-Eya2 inh: 4; TRPML1 blocker: 22; PINK1 expr mod: 2.0%; TRPML1 agonist: 1.0; D2 ag: -0.9; CtBP-E1A blk: 1
